PINK1 modulator – changes PINK1 expression; 410,000 compounds, 0.2% hits; Potency, µM (titrated, usually from 76.6 µM), for inactives: at the top dose activation (PINK1 increase), usual class: activators; PINK1 immunofluorescence, high-content cytometry, 24 h; active = well fitted activation curve with a large enough effect; inconclusive = small, poorly fitted or top-dose-only effect; inactive = flat fitted curve, though single readings scatter; cell line not stated here;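 note: potency is the fitted concentration of half-maximal effect; % of control where 0% means no effect; nearly all actives have a fitted effect of over 65% in size; a mitochondrial uncoupler was the plate control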
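Stable cell line treated 24 h with compounds at 5 concentrations (CCCP controls), then fixed and immunostained for PINK1 plus nuclear and cell stains; PINK1 immunofluorescence quantified by laser-scanning microplate cytometry.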
TRPML1 ag – activates the human TRPML1 channel. Q9GZU1. TRPML1-expressing cells, Ca2+ dye fluorescence, FDSS; host cell line not named in the record; reference of the full effect not given here. activation, % (concentration not given with the values). 410,000 compounds, 0.12% hits; in the data active = activation above about 50%; inconclusive = about 30% to 50%; inactive = below about 30%; note: 0% is about no effect; the text of the record puts the active cut at 80%
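Cells: TRPML1-DL, 1X Tet inducer, ~16 h at 37 degrees C/5% CO2. Dye: ABD Ca8 no-wash + quencher, 45-90 min RT. Read: 10 s baseline, compound add, 110 s agonist phase; 54-4 EC80 (4uM final), 110 s antagonist phase.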
TRPML1 blocker – human mucolipin-1 channel inhibition; Q9GZU1; TRPML1-inducible cells, Ca2+ dye fluorescence, FDSS; active compounds read low; inhibition of EC80 agonist-evoked calcium signal; activity change, negative = inhibition, % (test concentration not listed); 390,000 compounds, 0.02% hits; in the data active means activity change below about -50%; inconclusive means about -30% to -50%; inactive means above about -30%;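 note: stimulus is agonist 54-4 at its EC80 concentration; % is set by controls: 0 for no effect and ±100 for the full control effect; compound concentration not given in the record; the text of the record puts the active cut at -80%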
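Tet-induced TRPML1-DL cells loaded with Ca8 no-wash calcium dye were read kinetically on FDSS. Compound addition was followed by EC80 agonist 54-4 (4 uM final); inhibition was read over 110 s.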
D2 PAM – positive allosteric modulators of human D2 dopamine receptor; AID 624464; potentiation, % (concentration not given with the values); DiscoveRx D2 beta-arrestin cells, luminescence, 90 min; 100% = 57 uM dopamine signal; P14416; 360,000 compounds, 0.23% hits; active = potentiation of 50% or more; inconclusive = 30% to 50%; inactive = 30% or less;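 note: tested on top of an EC20 dose of dopamine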
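D2 cells co-treated with compound plus 50 nM dopamine (EC20) for 90 min at 37 deg C to detect potentiation. Beta-arrestin recruitment was read as enzyme-fragment luminescence after 1 h at ambient temperature. Full response was set by 57 uM dopamine.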
D2 agonist – human D2 receptor agonism in beta-arrestin assay | 360,000 compounds, 0.084% hits | DiscoveRx PathHunter D2 beta-arrestin, luminescence, 90 min; 100% = 57 uM dopamine signal | activation, % (no concentration beside the values) | AID 624465 | P14416; in the data active = activation above about 40%; inconclusive = about 15% to 40%; inactive = below about 15%; note: compound concentration not given in the record; the text of the record calls up to 30% inactive
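DiscoveRx PathHunter D2 beta-arrestin cells (2,100/well) attached overnight, then compound-stimulated 90 min at 37 C in HBSS/10 mM HEPES/0.1% Tween-20 buffer; beta-galactosidase complementation read by luminescence after 1 h at ambient temperature. Dopamine 57 uM final (EC100) as control.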
Six1-Eya2 blk – blocks human Six1 binding to Eya2; Q15475+O00167; activity change, % (no concentration beside the values); AID 651725; 360,000 compounds, 0.56% hits; AlphaScreen GST-Six1/His-Eya2 binding, biochemical; active compounds read low; control for the full effect not named in the record; in the data active = activity change below about -65%; inconclusive = about -30% to -65%; inactive = above about -30%; note: % is set by controls: 0 for no effect and ±100 for the full control effect
Target sequence (O00167 whole entry, looked up): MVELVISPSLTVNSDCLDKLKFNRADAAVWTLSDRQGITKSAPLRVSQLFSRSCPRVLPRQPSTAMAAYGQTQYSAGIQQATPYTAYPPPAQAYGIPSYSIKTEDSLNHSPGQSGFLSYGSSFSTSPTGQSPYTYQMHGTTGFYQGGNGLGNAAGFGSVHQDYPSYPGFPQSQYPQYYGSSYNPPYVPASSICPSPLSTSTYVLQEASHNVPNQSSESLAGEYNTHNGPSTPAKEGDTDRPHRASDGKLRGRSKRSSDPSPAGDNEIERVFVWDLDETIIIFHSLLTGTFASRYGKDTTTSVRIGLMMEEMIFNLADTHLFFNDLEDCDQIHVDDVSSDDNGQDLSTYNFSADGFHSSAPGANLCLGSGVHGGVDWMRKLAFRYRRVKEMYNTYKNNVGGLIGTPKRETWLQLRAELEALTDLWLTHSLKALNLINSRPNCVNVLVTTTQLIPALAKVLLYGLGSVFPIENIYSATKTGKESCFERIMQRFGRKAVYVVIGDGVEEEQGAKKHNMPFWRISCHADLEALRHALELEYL
Target sequence (Q15475 whole entry, looked up): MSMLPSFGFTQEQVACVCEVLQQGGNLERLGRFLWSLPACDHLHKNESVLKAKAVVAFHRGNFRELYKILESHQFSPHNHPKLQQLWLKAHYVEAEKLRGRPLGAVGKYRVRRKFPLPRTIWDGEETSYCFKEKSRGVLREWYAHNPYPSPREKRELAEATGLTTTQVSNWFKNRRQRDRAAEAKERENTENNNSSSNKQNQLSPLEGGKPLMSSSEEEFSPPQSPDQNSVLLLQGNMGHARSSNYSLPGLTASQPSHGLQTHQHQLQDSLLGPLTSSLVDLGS
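GST-Six1 + His-Eya2 (5X stock: 250/500 nM); Tris pH 8.0, 300 mM NaCl, 0.05% BSA, 0.02% Tween 20; GSH donor/Ni acceptor beads; 1 h 37 °C dark; AlphaScreen readout.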
* marks the source's active call; other numbers are inactive results; ? = inconclusive; . = not tested or not shown; & = joins results of further samples; [ ] = another dose, or the depositor's remark.

SMILES	PINK1 modulator	TRPML1 ag	TRPML1 blocker	D2 PAM	D2 agonist	Six1-Eya2 blk
CC1CCCC(C)N1CC(C)(C)NS(=O)(=O)c1ccc(Cl)cc1 (stereo unspecified)	.	-0.3	12	-11	1.3	0
O=C1CCCc2nc3c(cc21)C(O)Oc1c-3ccc2ccccc12 (stereo unspecified)	1.7%	-0.3	2	-4	-5.0	-7
CC1CC(C)CN(CCCNC(=O)CCNC(=O)Cn2cnc3ccccc3c2=O)C1 (stereo unspecified)	0.4%	0.0	7	-5	-4.7	4
COc1ccc2[nH]c(C)c(CCNS(=O)(=O)c3cc(F)ccc3OC)c2c1	4.3%	1.8	9	.	.	.
C/C(=N/NC(=O)c1sc(NS(=O)(=O)c2ccccc2)nc1C)c1ccccc1	0.9%	0.3	13	-4	-0.9	-11
CCc1ccc(NC(=O)CC2C(=O)NCCN2C(=O)c2ccccc2OC)cc1 (stereo unspecified)	-1.8%&-0.3%	1.7&1.2	5&0	-7	-1.8	1
CC(=O)N1CCSc2ccc(S(=O)(=O)NCCc3ccc(C)cc3)cc21	3.5%	0.1	-9	-14	1.8	1
CCCN1CCN(CCCNC(=O)CN2C(=O)C(CC)Oc3ccccc32)CC1 (stereo unspecified)	-0.3%	-0.1	22	-7	-0.4	1
COc1ccccc1C1CC(=O)Oc2cc(C)c(Cl)cc21 (stereo unspecified)	1.5%	-0.1	-11	.	-1.1	9
Cc1ccc(CN2CCN(CCCn3cccn3)CC2CCO)cc1 (stereo unspecified)	-1.5%	0.1	1	-16	-1.0	5
Cc1ccc(C=Nc2cccnc2N)cc1	0.7%	16	11	-3	1.8	-9
COc1ccc(C(=O)CC(=O)C(=O)Nc2cccc(F)c2)cc1	8.7%	0.3	6	-7	2.0	1
CC(=O)NS(=O)(=O)c1ccc(N=NN2CCCCC2)cc1	2.9%	-0.3	-19	-1	-1.1	12
COc1cccc(C(=O)N2N=C(c3ccccn3)CC2(O)C(F)(F)F)c1 (stereo unspecified)	28%	-0.1	16	-27	-4.8	-22
CCC(C)NS(=O)(=O)c1ccc(S(=O)(=O)N(CC(=O)Nc2ccccc2)Cc2ccco2)cc1 (stereo unspecified)	0.6%[38.3 µM]	-0.4	-6	8	3.0	-6
Cc1nc2ccc(NC(=O)N3CCCCC3)cc2nc1C	1.9%	-0.7	-3	7	0.0	-1
Cc1cccc(N2C(=O)CN(Cc3sccc3C)C2=S)c1	7.8%	0.1	8	3	1.9	24
CC(C)C(=O)N1CCCC1(C)C(=O)Nc1cccc(Oc2ccccc2)c1 (stereo unspecified)	3.5%	-0.5	-1	-2	-6.0	2
CCc1cccc(OCC(=O)N(C)CC(=O)Nc2cccc(F)c2)c1	2.7%	-0.3	-6	-10	5.6	3
O=c1cc(CNc2cc(Cl)ccc2Cl)nc2sccn12	1.9%	0.3	14	-3	-2.7	-3
O=C(CSc1ccc(F)cc1)Nc1ccc(N2CCOCC2)cc1	0.0%	-0.3	-2	-7	-3.2	-12
CC(C)(C)OC(=O)NCCCCCNC(=O)c1[nH]cnc1C(=O)Nc1nccs1	4.5%	-0.2	8	-3	-3.0	-76*
Cc1sc2nc(CC(=O)N3CCCC3)[nH]c(=O)c2c1C	2.1%	0.3	2	-4	-6.1	-2
O=c1c2c(nc3cc(-c4cccc(Cl)c4)[nH]n13)CCC2	10%[38.3 µM]	-0.1	2	-9	-1.0	-19
COc1ccc(CN2C(=O)CC(C(=O)NCCc3ccc(S(N)(=O)=O)cc3)SC2=Nc2ccccc2)cc1 (stereo unspecified)	-0.5%	2.0	-4	-5	9.7	7
CCOc1ccc(NC(=O)[C@H](C)NC(=O)C2CC(=O)N(c3ccc(OC)cc3)C2)cc1 (stereo partly specified)	1.7%	1.0	5	-17	-1.9	6
CCOc1cc(/C=N\NC(=O)c2ccc(C)nc2)ccc1OC(=O)c1ccc(F)cc1	11%	0.1	-8	-3	-2.6	-4
COc1ccc(S(=O)(=O)NCc2cn3c(C)csc3n2)cc1F	1.5%	-0.4	17	2	-2.1	6
O=C(CN1CCN(C(=O)c2ccc(-c3nc4ccccc4s3)o2)CC1)Nc1ccccc1Cl	-0.3%	1.5	21	1	-2.2	6
CCOC(=O)c1[nH]cnc1C(=O)N1CCC(C)CC1	0.2%	-0.3	5	-8	-2.2	11
Cc1ccc(/C=N/Nc2ccccn2)s1	3.1%	-0.4	9	-7	-2.0	-3
Cc1cc(=O)oc2cc(OCC(=O)OCC(=O)Nc3ccc(C(N)=O)cc3)ccc12	0.9%	-0.6	-24	1	-4.2	0
O=C(CCc1ccc(O)c(O)c1)NNC(=S)NCCc1ccccc1	7.3%	-0.5	-15	8	9.8	9
Clc1ccc(-n2ncc3c(NCC4CCCO4)ncnc32)cc1 (stereo unspecified)	6.1%	-0.2	20	-2	13	-1
CC(=O)N1CCc2cc(S(=O)(=O)NC(CC(C)C)C(=O)N3CCCC3)ccc21 (stereo unspecified)	-0.5%	-0.6	15	-4	-1.1	4
COc1cccc(NC(=S)N(CCC(C)C)C2CCN(C(C)=O)CC2)c1	-0.8%	0.9	29	-6	-1.9	2
CC(C)Cc1ccc(C(C)C(=O)OCC(=O)c2c[nH]c3ccccc23)cc1 (stereo unspecified)	.	12	-3	-1	-7.9	2
COc1ccccc1N1CCN(C(=O)CSc2nc(C)c(C)c(=O)[nH]2)CC1	2.0%	0.0	-10	-3	-5.0	-4
Cc1ccccc1Oc1ccc2c(c1)[C@@H]1C[C@H]3[C@@H](C(=O)N1CC2)[C@H](C)ON3C	-0.5%	1.1	1	-1	-1.7	1
Cc1cccc(Nc2ccncc2S(=O)(=O)NC(=O)NC(C)C)c1	0.2%	-0.5	22	3	-5.3	0
Cc1ccc(NC(=O)COC(=O)Cc2ccsc2)cc1S(=O)(=O)N1CCOCC1	4.1%	-0.4	12	-6	0.2	-2
CC(NC(=O)c1cc2cc(F)ccc2[nH]1)c1ccccc1 (stereo unspecified)	1.0%	2.7	-9	-20	-0.6	-8
COc1ccc(OC)c(Nc2nc(-c3sc(C)nc3C)cs2)c1	0.0%	6.0	-1	-14	-2.7	?
COc1cccc(NC(=O)CCC(=O)NCc2ccco2)c1	-1.3%	-0.1	-7	-13	-0.6	-1
CCc1ccc(-n2c(Cn3nc(C(F)(F)F)cc3C)n[nH]c2=S)cc1	-0.2%[38.3 µM]	-0.4	-4	-14	-1.7	-2

Some of these compounds in order of number of heavy atoms, falling:
SMILES	PINK1 modulator	TRPML1 ag	TRPML1 blocker	D2 PAM	D2 agonist	Six1-Eya2 blk
CC(=O)N1CCc2cc(S(=O)(=O)NC(CC(C)C)C(=O)N3CCCC3)ccc21 (stereo unspecified)	-0.5%	-0.6	15	-4	-1.1	4
COc1ccccc1N1CCN(C(=O)CSc2nc(C)c(C)c(=O)[nH]2)CC1	2.0%	0.0	-10	-3	-5.0	-4
CC(NC(=O)c1cc2cc(F)ccc2[nH]1)c1ccccc1 (stereo unspecified)	1.0%	2.7	-9	-20	-0.6	-8

More structures follow:
SMILES	PINK1 modulator	TRPML1 ag	TRPML1 blocker	D2 PAM	D2 agonist	Six1-Eya2 blk
CCOC(=O)c1nn(-c2ccc(Br)cc2)cc1C(=O)c1cccc2ccccc12	7.2%[38.3 µM]	0.9	77	-7	0.8	0
C/C(=N\O)c1ccc(N2C(=O)C3CC=C(Cl)CC3C2=O)cc1 (stereo unspecified)	-1.2%	-0.3	-17	-7	-0.7	3
CC(C)N(Cc1ccccc1)C(=O)Cn1ncc2c([nH]c3ccccc32)c1=O	1.1%	2.4	-10	.	.	.
CCCC(=O)Oc1ccccc1C1SCc2cc(C)c(C)cc2CS1	7.5%	1.5	5	-10	-6.6	5
CCOc1ccccc1/C=C(\C(=O)O)c1ccc(S(=O)(=O)N2CCCCC2)s1	0.2%	1.6	37	-2	1.7	3
CCOC(=O)C1=C(C)Nc2ncnn2C1c1cccs1 (stereo unspecified)	-0.5%	1.9	7	2	1.0	-3
CCC(C)(C)C(=O)Nc1cccc(Cl)c1C	0.0%	-0.5	-3	3	0.3	7
COn1c(C)c(C(C)=O)c2c3nonc3ccc21	-1.2%	0.9	1	-6	4.3	5
COC(=O)c1ccc(/C=N/n2c(C)nc3ccccc3c2=O)cc1	2.5%	-0.7	1	0	-0.4	0
O=C(COC(=O)CCCNC(=O)c1ccc(Cl)cc1)Nc1cc(Cl)c(Cl)cc1Cl	-0.2%	1.0	-14	13	0.7	1
CCN(CC)c1nc2ccccc2nc1C(=O)Nc1cc(OC)c(OC)c(OC)c1	2.3%	2.5	-14	.	.	.
COC(=O)c1ccccc1NC(=O)c1ccc2nc(CCc3ccccc3)oc2c1	0.6%	1.2	-10	.	.	.
O=C(COC(=O)c1ccc(O)cc1)NC1CCCCCC1	4.6%	0.2	-1	-7	-2.0	5
CC(=O)c1cccc(NC(=O)CN(C)S(=O)(=O)c2ccc3c(c2)CCC(=O)N3)c1	1.1%	-0.1	9	-5	-3.4	2
COc1ccc(C(=O)Nc2nc3ccccc3[nH]2)cc1S(=O)(=O)N1CCOCC1	2.5%	0.5	29	-2	-4.0	?
O=C(N/C(=C/c1cccnc1)C(=O)N1CCCCCC1)c1ccccc1	1.5%	0.3	-15	-11	1.8	0
CCCOC(=O)NC1C(NC(=O)OCCC)N(C)C(=O)N1C (stereo unspecified)	-1.1%	-0.7	-4	-1	-3.0	4
O=C(NCCc1ccccc1)c1ccc(CSc2nc3cccnc3n2Cc2ccccc2)cc1	-0.7%	2.2	-5	.	.	.
COc1ccccc1N1CCN(CC(=O)c2c(C)[nH]c3ccccc23)CC1	.	-0.5	7	-34	-0.4	-4
O=S(=O)(CCN1CCN(c2ccccc2O)CC1)c1cc(Cl)ccc1Cl	4.2%	-0.1	-5	-2	3.3	-8
O=C1NC[C@H](CCCCN2C[C@H](Cc3ccccc3)N(Cc3ccccc3)C(=O)C2=O)N(CC2CCCCC2)C1=O	1.3%	-1.0	.	.	.	1
O=C1CC(N2CCOCC2)C(=O)N1CCc1ccccc1 (stereo unspecified)	0.6%	-0.5	19	-2	-0.5	5
CCOc1cc(/C=C2/COc3ccccc3C2=O)ccc1OCC(=O)N(C)C	-0.6%	1.0	-12	-21	0.8	2
CCC(=O)Nc1nc(-c2ccc3c(c2)CC(C)N3S(C)(=O)=O)cs1 (stereo unspecified)	-0.4%	0.8	1	-3	4.3	1
CN1C(=O)CC(C(=O)O)SC1=Nc1cccc(C(F)(F)F)c1 (stereo unspecified)	-1.5%	-0.2	13	1	-1.3	6
Cc1nc(N2CCCCCC2)c2ccccc2n1	1.2%	3.6	30	-25	3.4	7
O=S1(=O)CC(O)C(N2CCCCC2)C1 (stereo unspecified)	-0.4%	-0.1	-12	-4	-3.1	11

Single values from the results shown:
In D2 agonist, CCC(=O)Nc1nc(-c2ccc3c(c2)CC(C)N3S(C)(=O)=O)cs1 (stereo unspecified) reads 4.3
In Six1-Eya2 blk, Cc1nc(N2CCCCCC2)c2ccccc2n1 reads 7

Ordered by the number under PINK1 modulator (highest first): 3 of the compounds above
Compound | PINK1 modulator
Cc1nc(N2CCCCCC2)c2ccccc2n1 | 1.2%
O=S1(=O)CC(O)C(N2CCCCC2)C1 (stereo unspecified) | -0.4%
CCCOC(=O)NC1C(NC(=O)OCCC)N(C)C(=O)N1C (stereo unspecified) | -1.1%

Screens as filed in PubChem BioAssay.
